Calb FLC: affects C. albicans growth with fluconazole | C. albicans CaCi-2 (fluconazole-resistant clinical isolate) + fluconazole, Alamar Blue growth, 48 h | actives 0.57% (n = 300,000) | AID 1979 | growth inhibition, % (concentration not given with the values);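 active means most replicates above 75%; inconclusive means exactly half above 75%; inactive means most below 75%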;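 further: all wells also contain fluconazole at 8 µg/ml as a sub-toxic cotreatment; 0% = median of DMSO wells and 100% = median of geldanamycin control wells; wells of about 8 µL received 7.5 nL stock; the first replicate is given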
Beta apoptosis: beta cell apoptosis inhibition; actives 0.8% (n = 300,000); protection from apoptosis, % (concentration not given with the values); AID 435005; INS-1E cytokine-induced death, ATP luminescence, 48 h; percent of positive-control rescue, neutral wells zero;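 active means all replicates at 75% or more, or half of them and the mean; inconclusive means half reach 75% but not the mean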;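 further: 0% = cytokine-treated negative control wells and 100% = positive control rescue; higher means more ATP so stronger rescue from cytokine killing; wells of about 40 µL received 100 nL stock; the first replicate is given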
Bfl-1 A1 inh: inhibitors of the anti-apoptotic protein A1, read as caspase activation | MEF A1-2A-BIM cells, Caspase-Glo 3/7 luminescence, 3 h; percent of clofoctol response, vehicle zero | caspase activation, % (no concentration beside the values) | actives 0.066% (n = 330,000) | AID 2462;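 active means over half of replicate activation scores above 10%, or exactly half above 10 with the replicate mean above 10; inconclusive means replicate mean below 10 yet half the replicates above 10; inactive means over half of replicates below 10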;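 further: wells of about 30 µL received 50 nL stock; many hits fall short of the cut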
Vif TR-FRET: HIV-1 Vif–A3G interaction blockers – biochemical, TR-FRET, GST-Vif 1-94, biotin-A3G peptide, dose response retest, primary screen (AID 1117319) | inhibition, %; hits with a dose series show IC50 in µM | TR-FRET GST-Vif / biotin-A3G peptide binding; higher % means a stronger effect; test concentration not given here; strong numbers were not always called active | actives 0.57% (n = 260,000);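 active means above the screen mean plus three standard deviations and confirmed in dose response; inconclusive means results disagree or hit not tested in dose response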;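 further: Vif residues 1-94 fused to GST binding biotinylated APOBEC3G peptide 110-148; 0% = full assay without inhibitor and 100% = GST in place of GST-Vif; retest series ran down from 100 µM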
T cruzi repl: T. cruzi replication inhibition; actives 1.4% (n = 300,000); inhibition, % (test concentration not listed); AID 1885; T. cruzi beta-gal in NIH3T3, luminescence, 90 h;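 active means mean inhibition across valid replicates above about 55%, limit read from the data; inconclusive means mean below that limit but half or more replicates reach it; inactive means mean below it, under half of replicates reach it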;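 further: signal also drops with host cell toxicity which is not excluded here; 0% = plate median of DMSO wells and 100% = zero luminescence signal; higher percent means less beta-gal luminescence so fewer parasites; stock transfer was 50 nL into about 50 µL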
LANA-H2A inh: blocks KSHV LANA binding to histone H2A/H2B; inhibition, % (no concentration beside the values); actives 0.6% (n = 320,000); Q9QR71; cell-free LANA-H2A/H2B peptide, fluorescence polarization; AID 2629; in the data active means inhibition mostly above about 10%, no sharp cut-off; inactive means mostly below about 6.7%;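 further: stock transfer was 7.5 nL into about 10 µL; 0% = median of vehicle wells and 100% = median of positive control wells; one replicate is shown; the record names a cut of 25% in any replicate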
RanGTP-Imp inh: disruptors of Ran-importin-beta complex formation – biochemical, FRET, CFP-Ran, YFP-importin-beta, homogeneous, primary screen | inhibition, % (test concentration not listed) | cell-free CFP-Ran/YFP-importin-beta FRET ratio | AID 2216 | actives 1.1% (n = 300,000);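 active means most replicates above 15%; inconclusive means exactly half above 15%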;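 further: 0% = DMSO wells and 100% = Ran loaded with GDP instead of GTP; wells of about 40 µL received 100 nL stock; the first replicate is given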
MLL AF4-AF9 inh: blocks AF4 peptide binding to human AF9. AlphaScreen, biotin-AF4 peptide binding to FLAG-AF9. inhibition, % at 10 µM. actives 0.47% (n = 350,000). AID 651704;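 active means every replicate reaching a set inhibition limit, whatever the replicate mean, cut at about 25% in these data; inconclusive means mean inhibition reaches that limit but some replicates miss it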;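 further: 0% = plate neutral control median and 100% = total signal loss; the record names both 10 and 1 µM as test concentration; the first replicate is given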
Target sequence (P42568 whole entry, looked up): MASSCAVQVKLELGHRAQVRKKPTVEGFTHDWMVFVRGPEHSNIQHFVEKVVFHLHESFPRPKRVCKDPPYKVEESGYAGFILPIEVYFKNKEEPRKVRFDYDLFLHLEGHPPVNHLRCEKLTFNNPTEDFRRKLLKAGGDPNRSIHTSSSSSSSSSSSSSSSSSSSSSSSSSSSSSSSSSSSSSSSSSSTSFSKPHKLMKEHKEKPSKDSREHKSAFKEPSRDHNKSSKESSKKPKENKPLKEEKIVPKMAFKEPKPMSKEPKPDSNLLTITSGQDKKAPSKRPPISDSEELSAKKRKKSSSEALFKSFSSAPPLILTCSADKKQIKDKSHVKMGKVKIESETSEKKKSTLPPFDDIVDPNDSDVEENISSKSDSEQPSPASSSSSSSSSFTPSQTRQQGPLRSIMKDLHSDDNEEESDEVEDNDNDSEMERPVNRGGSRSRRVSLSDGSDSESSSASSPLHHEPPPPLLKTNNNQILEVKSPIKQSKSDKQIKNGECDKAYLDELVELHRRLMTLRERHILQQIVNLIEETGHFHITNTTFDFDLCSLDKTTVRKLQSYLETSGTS
* = called active by the depositor; ? = inconclusive; . = no result given; & = joins results of further samples.

SMILES | Calb FLC | Beta apoptosis | Bfl-1 A1 inh | Vif TR-FRET | T cruzi repl | LANA-H2A inh | RanGTP-Imp inh | MLL AF4-AF9 inh
Cc1cccc(CSc2nnc(CCNC(=O)OC(C)(C)C)o2)c1 | 10 | 1 | -0.4 | -1% | 17 | -1.2 | 5.4 | -0.5
CCc1ccc(-c2cnc3nc[nH]c(=O)c3n2)cc1 | 3 | . | 0.8 | . | . | -2.8 | 15* | -0.2
CC1(C)C([N+](=O)[O-])C(c2ccc(F)cc2)NC(c2ccc(F)cc2)C1[N+](=O)[O-] (stereo not drawn) | -1 | -1 | -0.1 | . | 9 | -3.8 | 0.3 | 0.4
O=C(NCc1ccc2c(c1)OCO2)c1cccc(S(=O)(=O)N2CCOCC2)c1 | -13 | 1 | -0.7 | -6% | -10 | -2.8 | 1.4 | .
O=C(COC(=O)c1cnccn1)Nc1ncc(Cl)cc1Cl | 1 | -1 | -0.4 | 27% | 2 | 2.0 | -3.3 | -0.7
CC(=O)Cc1nsc(NC(=O)c2cccc(F)c2)n1 | 2 | 5 | -2.5 | -4% | -6 | 0.9 | -3.0 | -5.1
COc1cccc(CNS(=O)(=O)c2ccc3c(c2)NC(=O)CS3)c1 | -5 | 4 | 0.1 | . | -11 | 1.4 | -3.1 | -0.1
COC(=O)c1ccc(N2CCN(C)CC2)c(NC(=O)COc2ccc(OC)cc2)c1 | 1 | -1 | -0.2 | 0% | 28 | -1.4 | 0.6 | .
O=C1CC(=O)CC(c2ccccc2Cl)C1 | 1 | 3 | 0.9 | 21% | 7 | -1.5 | -0.6 | .
CC(=O)c1c(C)[nH]c(C(=O)NCc2ccco2)c1C | 7 | -11 | -0.9 | ? | -15 | -1.0 | 1.5 | 2.3
COc1ccc(/C=C2\Oc3cc(OCC(=O)N4CCC[C@H]4CO)ccc3C2=O)c(OC)c1 | 9 | 1 | 0.1 | . | 10 | 9.0 | 3.9 | .
CCCc1nc2ccc(NC(=O)NCCC(=O)OCC)cc2c(=O)n1Cc1cccc(Cl)c1 | -7 | -4 | 1.6 | 24% | 4 | 2.2 | ? | .
COc1ccc(N2CCN(c3ccc(NC(=O)NN)cc3)CC2)cc1 | 12 | 0 | 0.6 | . | 21 | -0.5 | -3.4 | -1.0
Brc1ccccc1OCCCCCN1CCCC1 | -15 | 11 | -0.7 | -9% | 57* | 5.0 | 4.7 | .
O=C(c1ccco1)N1CCN(Cc2nnc(-c3ccccc3F)o2)CC1 | -8 | 2 | 1.3 | . | 3 | -5.4 | 0.7 | 1.1
COc1ccc(Cl)cc1NC(=O)CNCc1cccs1 | -9 | -5 | 0.5 | -1% | 0 | -0.6 | -0.2 | -2.0
Cc1nn(Cc2ccc([N+](=O)[O-])cc2)c(=O)n1-c1ccc(F)cc1 | -15 | . | 0.3 | 2% | -14 | -7.3 | 6.1 | .
COc1ccc2oc(C(=O)OCC(=O)NC(C)(C#N)C3CC3)c(C)c2c1 (stereo not drawn) | -1 | -1 | 0.4 | 3% | -12 | 0.8 | -2.0 | -2.3
C[C@@H]1CC[C@]2(C(=O)O[C@@H]3O[C@H](CO)[C@@H](O)[C@H](O)[C@H]3O)CC[C@]3(C)C(=CCC4[C@@]5(C)CC[C@H](O[C@@H]6OC[C@H](O)[C@H](O[C@@H]7O[C@H](CO)[C@@H](O)[C@H](O)[C@H]7O)[C@H]6O)C(C)(C)C5CC[C@]43C)C2[C@]1(C)O (stereo partly drawn) | . | -6 | 0.4 | . | . | 0.0 | . | -0.6
COc1cccc(-c2c(NC(=O)c3ccco3)oc3ccc(Cl)cc3c2=O)c1 | 3 | -4 | -0.6 | . | -10 | 1.7 | -0.3 | -3.1
CCOC(=O)C1CCN(C(=S)NC2CC3C=CC2C3)CC1 (stereo not drawn) | -1 | 5 | -0.1 | -4% | 1 | 21* | -5.1 | 32*
COc1ccccc1/C=C\C=N\NC(=O)CCn1nnc2ccccc21 | 0 | 2 | 0.0 | . | 14 | -0.8 | 2.6 | 4.1
CSc1nc2ccc(N3C(=O)C4CCCCC4C3=O)cc2s1 (stereo not drawn) | 11 | -6 | 1.3 | -12% | -18 | -4.7 | 1.4 | .
CCc1cccc2c(C=C(C#N)C#N)cn(CC(=O)N3CCCCCC3)c12 | 0 | 1 | 0.3 | -4% | -1 | 2.8 | 2.7 | -13
Cc1cccc2nc(Cn3c(=O)n(CCC(=O)NCc4ccco4)c(=O)c4sccc43)cc(=O)n12 | 26 | . | . | 0%&-5% | -5 | . | 0.8 | .

Whole records, looked up by structure:
CC(=O)Cc1nsc(NC(=O)c2cccc(F)c2)n1 is listed with Calb FLC = 2; Beta apoptosis = 5; Bfl-1 A1 inh = -2.5; Vif TR-FRET = -4%; T cruzi repl = -6; LANA-H2A inh = 0.9; RanGTP-Imp inh = -3.0; MLL AF4-AF9 inh = -5.1
COc1ccc(/C=C2\Oc3cc(OCC(=O)N4CCC[C@H]4CO)ccc3C2=O)c(OC)c1 is listed with Calb FLC = 9; Beta apoptosis = 1; Bfl-1 A1 inh = 0.1; Vif TR-FRET = .; T cruzi repl = 10; LANA-H2A inh = 9.0; RanGTP-Imp inh = 3.9; MLL AF4-AF9 inh = .

Back to the main list with the two entries that preceded the break.
SMILES | Calb FLC | Beta apoptosis | Bfl-1 A1 inh | Vif TR-FRET | T cruzi repl | LANA-H2A inh | RanGTP-Imp inh | MLL AF4-AF9 inh
CCc1cccc2c(C=C(C#N)C#N)cn(CC(=O)N3CCCCCC3)c12 | 0 | 1 | 0.3 | -4% | -1 | 2.8 | 2.7 | -13
Cc1cccc2nc(Cn3c(=O)n(CCC(=O)NCc4ccco4)c(=O)c4sccc43)cc(=O)n12 | 26 | . | . | 0%&-5% | -5 | . | 0.8 | .
Cc1ccc(S(=O)(=O)/N=C(\CN2CCOCC2)N2CCOCC2)cc1 | -8 | 1 | 1.0 | 3% | -19 | -1.0 | 4.6 | .
Cn1c(CN2CCCC2)nc2cc(NC(=O)Nc3ccccc3)ccc21 | 6 | -2 | -2.6 | 69% | -21 | 2.0 | -1.9 | 11
O=C(NCc1ccco1)c1cnc2ccccn2c1=O | 3 | 2 | -0.2 | 1% | -3 | 0.6 | -0.6 | 1.1
CCCCCN(C(=O)NC(=O)Nc1ccc(C)cc1C)S(C)(=O)=O | 1 | 3 | -1.0 | -10% | -2 | -1.0 | -0.2 | -0.9
Nc1nnnn1CC(=O)N/N=C/c1ccc(-c2cccc(Cl)c2)o1 | 1 | 8 | -0.6 | . | -17 | -5.9 | . | -1.6
Cc1ccc2c(c1)C1CN(C)CCC1N2C(=O)COc1ccc(N(C)C(=O)c2ccccc2)cc1 (stereo not drawn) | ? | -2 | -0.2 | -14% | 44 | -7.8 | -0.9 | 3.5
Cn1nnnc1Sc1ncnc2scc(-c3ccsc3)c12 | . | -4 | -1.3 | . | . | 1.2 | . | 3.2
CS(=O)(=O)c1ccc(Cl)c(NC(=O)c2cccc(Br)c2)c1 | 7 | 3 | 0.0 | . | 41 | -6.5 | 4.9 | .
CCn1c(SCC(=O)N2CCCC2)nnc1-c1ccco1 | -11 | -4 | 0.2 | -2% | -5 | 0.4 | -1.2 | -2.8
O=C(O)c1ccccc1NCCO | -2 | 0 | 1.4 | 1% | -11 | -2.4 | -0.1 | -2.8
COC(=O)Cc1ccc(NC(=O)c2ccc(C(C)(C)C)cc2)cc1 | -16 | . | 0.2 | 7% | 13 | -1.3 | -5.7 | .
O=S(=O)(c1ccc(Nc2ccc(-c3ccc4c(c3)OCCO4)nn2)cc1)N1CCCC1 | 5 | 2 | -0.9 | -4% | 49 | -0.1 | 3.4 | 10
COC(=O)c1ccc(CN2CCN(CCCc3ccccc3)C(CCO)C2)cc1 (stereo not drawn) | -27 | 2 | 0.6 | ? | 24 | -6.4 | 1.0 | 3.7
O=C(NC1CCCC1)c1cnn2c(C(F)(F)F)cc(-c3ccc4c(c3)OCO4)nc12 | -15 | . | -0.9 | 0% | 23 | -0.8 | ? | .
C=CCSc1nnc(NC(=O)CCNC(=O)c2ccco2)s1 | -5 | -2 | 0.2 | . | -1 | -2.0 | 3.4 | 3.0
CCOc1ccc(N2C(=O)/C(=C/c3ccccc3)N=C2SC)cc1 | 7 | 0 | 0.2 | 22% | 13 | -1.7 | -1.6 | 6.5
CCOC(=O)Cc1nc2ccccc2[nH]1 | 0 | 0 | 0.3 | -2% | 16 | 10 | 7.6 | .
CN(C)c1nc2n(c(=O)n1)C(C#N)CS2 (stereo not drawn) | -2 | 3 | -0.2 | ? | -14 | 2.9 | 1.7 | .
Cc1ccc2[nH]c(=O)c(C(c3nnnn3C(C)(C)C)N(Cc3ccco3)CC3CCCO3)cc2c1 (stereo not drawn) | 16 | 1 | -0.3 | ? | 60* | -0.7 | 1.2 | .
COc1cc(C(=O)N2CCN=C2c2ccccc2)cc(OC)c1OC | . | 5 | -0.4 | -6% | . | 1.4 | . | .
COC(=O)c1ccc(N2CCN(C)CC2)c(NC(=O)c2sc3ccccc3c2Cl)c1 | 8 | 3 | -0.2 | -9% | 19 | 3.3 | 3.6 | 26*
Cc1ccc(Sc2cc(C(=O)NCCN(C)C)c3ccccc3n2)cc1 | 2 | -14 | 0.2 | 2% | 52 | -3.7 | -2.5 | 4.8
CCCOc1ccc(C(CC(=O)O)NC(=O)C(c2ccccc2)c2ccccc2)cc1 (stereo not drawn) | . | -8 | -0.4 | . | . | 1.1 | . | -6.9
CC(Sc1nnc(-c2ccc(C(C)(C)C)cc2)n1C)C(N)=O (stereo not drawn) | . | -3 | 1.0 | -1% | . | -0.4 | . | .
O=C(Nc1cccc(Cl)c1)N1CCOCC1 | -13 | 0 | 0.4 | . | -5 | -3.3 | 8.0 | 1.1

The listing continues:
SMILES | Calb FLC | Beta apoptosis | Bfl-1 A1 inh | Vif TR-FRET | T cruzi repl | LANA-H2A inh | RanGTP-Imp inh | MLL AF4-AF9 inh
CC(C)(C)NS(=O)(=O)c1ccc(CCC(=O)NCc2ccccn2)cc1 | 0 | -5 | 0.2 | -6% | 0 | 1.7 | -1.5 | -7.4
COc1ccc(C2C3=C(CC(C)(C)CC3=O)Nc3cc4c(cc32)OCO4)cc1 (stereo not drawn) | -4 | -11 | 0.3 | -4% | 14 | 0.8 | -3.1 | .
COCCN(C(=O)CSc1nnc(Nc2ccc(C)cc2)s1)c1c(N)n(CC(C)C)c(=O)[nH]c1=O | 3 | 6 | 0.4 | -7% | 13 | 1.8 | -1.9 | 1.6
COc1cccc(C(=O)NCC(=O)N/N=C/c2cccnc2)c1 | 17 | -4 | -0.5 | . | -21 | -0.7 | -5.7 | -2.3
Cc1ccc(OCC(=O)N/N=C/c2ccc3c(c2)OCO3)cc1C | -18 | . | . | 20% | 5 | . | -3.9 | -1.0
COC(=O)c1cc(C(C)=O)n2ccccc12 | -10 | -6 | 0.1 | 2% | 4 | 0.6 | 2.4 | .
CCC(=O)c1ccc(OCC(=O)NC2(C#N)CCCCC2)cc1 | 4 | 0 | -1.4 | -6% | . | 1.5 | . | -1.0
COC(=O)CNS(=O)(=O)c1ccc(Cc2ccc(S(=O)(=O)NCC(=O)OC)cc2)cc1 | 13 | -11 | 0.1 | 0%&1% | 3 | 5.8 | ? | 3.4

Screening data as filed in PubChem.
